Rango-impB inh = qHTS Assay for Inhibitors of Rango (Ran-regulated importin-beta cargo) - Importin beta complex formation | Rango CFP/YFP FRET sensor + importin beta, 45 min | actives 0.031% (n = 340,000) | Potency, µM (highest dose often 92.2 µM), for the others: top-dose inhibition of complex formation | AID 540263, 2011 | Importin subunit beta-1 (Homo sapiens), Q14974; active = rising FRET ratio curve, often small or poorly fitted; inconclusive = mostly compound fluorescence or quenching in the first reads; inactive = flat curves in all reads;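 also: potency is read from the fitted curve at half-maximal effect; 0% = DMSO wells and 100% = buffer wells lacking importin beta; nearly all actives have a fitted effect of over 15% in size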
Target sequence (Q14974 whole entry, looked up): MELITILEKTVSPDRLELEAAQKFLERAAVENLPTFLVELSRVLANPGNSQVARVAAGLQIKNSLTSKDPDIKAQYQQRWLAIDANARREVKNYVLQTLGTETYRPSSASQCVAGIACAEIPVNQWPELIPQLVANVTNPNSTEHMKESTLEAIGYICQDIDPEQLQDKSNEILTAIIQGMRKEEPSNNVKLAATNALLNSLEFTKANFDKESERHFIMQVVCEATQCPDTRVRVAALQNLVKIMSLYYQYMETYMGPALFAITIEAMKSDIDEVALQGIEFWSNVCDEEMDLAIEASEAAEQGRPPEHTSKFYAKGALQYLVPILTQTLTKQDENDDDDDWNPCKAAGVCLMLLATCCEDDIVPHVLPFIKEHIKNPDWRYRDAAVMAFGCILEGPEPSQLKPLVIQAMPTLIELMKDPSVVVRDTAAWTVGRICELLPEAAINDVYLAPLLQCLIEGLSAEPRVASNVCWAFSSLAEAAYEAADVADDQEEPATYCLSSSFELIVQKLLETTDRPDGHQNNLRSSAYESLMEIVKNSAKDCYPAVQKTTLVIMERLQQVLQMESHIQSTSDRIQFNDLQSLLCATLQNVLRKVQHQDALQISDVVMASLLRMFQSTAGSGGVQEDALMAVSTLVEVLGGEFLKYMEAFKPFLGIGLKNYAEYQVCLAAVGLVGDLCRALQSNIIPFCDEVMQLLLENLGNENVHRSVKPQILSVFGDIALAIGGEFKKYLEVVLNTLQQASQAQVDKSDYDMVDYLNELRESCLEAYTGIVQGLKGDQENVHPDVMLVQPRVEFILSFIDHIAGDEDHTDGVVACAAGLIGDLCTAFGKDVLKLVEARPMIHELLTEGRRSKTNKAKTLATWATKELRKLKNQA
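Inhibition scored from the CFP 486 nm/YFP 530 nm FRET ratio 45 min after adding 0.125 microM importin beta to 50 nM Rango biosensor preincubated 5 min with compound (room temperature, PBS with DTT, Tween-20, BSA). No-importin wells as positive control.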
Rango dissoc inh = qHTS Assay for Inhibitors of RanGTP induced Rango (Ran-regulated importin-beta cargo) - Importin beta complex dissociation | actives 0.071% (n = 340,000) | Biochemical FRET Rango-importin beta, RanGTP-induced dissociation | Potency, µM (doses to about 46.1 µM), inactives show at the top dose activity change, negative = inhibition; active means falling FRET ratio curve, often poorly fitted, with flat reads before Ran was added; inconclusive means other falling curves, or compound fluorescence or quenching; inactive means flat or rising ratio curve;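 also: potency is read from the fitted curve at half-maximal effect; % of control where 0% means no effect; nearly all actives have a fitted effect of over 45% in size; -100% = wells without RanGTP and RCC1; the record marks most hits as doubtful in a second field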
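Quantitative HTS using a FRET biosensor: 0.1 uM Rango, 0.25 uM importin beta, 0.6 uM Ran, 2 mM GTP, 0.2 uM RCC1 final, PBS with DTT, Tween-20 and BSA. Post-read taken 45 min after Ran addition.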
miR-21 reporter = qHTS Assay for Modulators of miRNAs and/orActivators of miR-21; HeLa miR-21 FLuc reporter, luciferase, 48 h; Potency, µM (titrated, usually from 38.3 µM), inactives show top-dose reporter change, positive = more light; 340,000 tested, under 10 active; active = well fitted rising curve with a large enough effect; inconclusive = small, poorly fitted or top-dose-only effect; inactive = no such curve, though single readings can be large or run the other way;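 also: % of control where 0% means no effect; miR-21 action dims this reporter so a rising signal means less miR-21 action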
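HeLa cells endogenously expressing miR-21, stably carrying CMV-driven firefly luciferase with a downstream miR-21 binding site, 2000 cells/well. Titrations up to approximately 40 uM, 48 hours; luciferase luminescence read.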
GLA inh pH 4.5 = qHTS Assay for Inhibitors of Human alpha-Galactosidase at pH 4.5 | 230,000 tested, under 10 active | AID 1467, 2008 | activity change, negative = inhibition, % at 105 µM | Alpha-galactosidase A (Homo sapiens), P06280 | purified enzyme, 4-MU-alpha-Gal fluorescence, pH 4.5; inconclusive = small, poorly fitted or top-dose-only inhibition, or a rising curve; inactive = flat fitted curve, though single readings scatter; no compound was filed as active;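 also: 0% = full activity with enzyme and -100% = basal without enzyme; dose as in the result columns while the protocol names 77 µM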
* marks the source's active call; other numbers are inactive results; u = inconclusive; x = no result given; & = joins results of further samples.

SMILES	Rango-impB inh	Rango dissoc inh	miR-21 reporter	GLA inh pH 4.5
Cc1nc(Nc2nc3ccccc3o2)nc(C)c1C(=O)Nc1ccc(F)cc1	-4.1%	9%	5%	7
NC(=O)C1(N2CCCCC2)CCN(C(=O)CSc2nc3ccccc3s2)CC1	-0.6%	2%	0%	-2
CCCCCNC(=O)CC1Nc2c3ccccc3nc(=S)n2C1=O (stereo not drawn)	0.1%	13%	6%	0
CN1CCN(CCn2c(=S)[nH]c3ccccc3c2=O)CC1	2.6%	-13%	-5%	x
Cc1c(C(=O)NCC2CCCO2)sc2nc(-c3ccc(F)cc3)cn12 (stereo not drawn)	4.3%	0%	-12%	2
COc1ccc(/C=C/C(=O)Nc2cccc(S(=O)(=O)NC3=NCCCCC3)c2)cc1OC	1.1%	-1%	x	x
C=CCNC(=O)C(=O)NN=C1CCN(C)CC1	2.6%	5%	-4%	-1
O=C(NCc1cccnc1)C1c2ccccc2C(=O)N1Cc1ccccc1 (stereo not drawn)	0.1%	-1%	-3%	-4
COc1ccc(CCNC(=O)CSc2nc(O)c(CCC(C)C)c(=O)[nH]2)cc1OC	-6.2%	21%	0%	1
O=C(Nc1nc(-c2cccs2)cs1)c1ccc(S(=O)(=O)N2CCCCC2)cc1	-2.6%	18%	u	2
CCCN(C(=O)CSCc1ccccc1C)c1c(N)n(Cc2ccccc2)c(=O)[nH]c1=O	-6.8%	-5%	x	x
C/C(=N/NC(=O)COc1cc(C)ccc1C(C)C)C(=O)O	0.9%	-5%	17%	-4
CCOC(=O)C1CCCN(CCSc2ccc(C)cc2)C1 (stereo not drawn)	7.4%	6%	-10%	x
O=C(CCOc1ccccc1)NCC(c1ccco1)N1CCCCC1 (stereo not drawn)	-3.6%	-2%	-7%	7
NC(=O)NC(=O)CC1S/C(=N/N=C2\CSC(=O)N2)NC1=O (stereo not drawn)	-0.6%	13%	-5%	1
COc1ccc(OC)c(NS(=O)(=O)c2ccc(Cl)s2)c1	0.3%	23%	14%	1
Cc1ccc(N(C(=O)c2sc(C)nc2C)C(C(=O)NC(C)(C)C)c2ccncc2)cc1 (stereo not drawn)	4.4%	-8%	-2%	4
O=C(Nc1ccc2c(c1)OCO2)C1CC(c2cccc(Br)c2)=NO1 (stereo not drawn)	2.5%	u	-2%	x
CCCCn1c(=O)n(CC(O)c2ccccc2)c(=O)c2c1ncn2C1CCCC1 (stereo not drawn)	-0.1%	9%	17%	5
Cc1cccc(CSCCNC(=O)CN2C(=O)c3ccccc3S2(=O)=O)c1	-1.7%	-2%	-2%	x
CCCCc1ccc(NC(=O)C2CCN(S(C)(=O)=O)CC2)cc1	5.3%	0%	-7%	-13
O=c1c2ccccc2nc(-c2ccc(Cl)cc2Cl)n1CCCn1ccnc1	4.7%	-1%	-6%	8
COc1ccc(C)cc1N(CC(=O)NC1CCCC1)C(=O)CCC(=O)Nc1cc(C)on1	-2.5%	8%	0%	3
O=C(NCCc1ccc(O)cc1)c1ccc(Cl)cc1	-1.7%	-5%	-49%	2
Cc1ccc(N2CCN(S(=O)(=O)N3CCCCC3)CC2)cc1C	-7.5%	-21%	-4%	3
(cont.)
SMILES	Rango-impB inh	Rango dissoc inh	miR-21 reporter	GLA inh pH 4.5
CCN(CC)c1ccc(NC(=O)CCc2nnc3ccc(N4CCCC4)nn23)c(C)c1	1.0%	5%	7%	x
COc1ccc(N=C2SCC(=O)N2Cc2ccccc2)cc1	1.6%	6%	-12%	-2
COc1ccc(NC(=S)NCCCc2ccccc2)cc1	-3.0%	16%	-20%	-2
O=C(Cc1ccccc1)NNS(=O)(=O)c1ccc([N+](=O)[O-])cc1	1.3%	1%	-3%	6
CCOc1ccc(CCNC(=O)c2nn(C)c3c2CS(=O)(=O)c2ccccc2-3)cc1	-4.2%	-4%	12%	x
CCOc1ccccc1NC(=O)NCc1ccccc1	-1.6%	15%	5%	-13
Cc1ccc(O)c(CNCCNCc2cc(C)ccc2O)c1	-2.2%	-10%	x	x
O=c1cc(N2CCN(Cc3ccccc3)CC2)c(-c2ccccc2)n[nH]1	0.2%	4%	0%	-15
CC(C)C(=O)Nc1c2c(nn1-c1ccccc1)CSC2	-0.2%	9%	1%	x
Cc1cc(C)c(C)c(S(=O)(=O)NCc2ccc(C(=O)N3CCN(C)CC3)cc2)c1C	0.4%	12%	-1%	x
COc1ccc(NC(=O)C2CCCCN2S(=O)(=O)c2ccc(F)cc2)c(OC)c1 (stereo not drawn)	-3.9%	13%	10%	-20
CC(OC(=O)Cc1n[nH]c(=O)c2ccccc12)C(=O)Nc1cccc([N+](=O)[O-])c1 (stereo not drawn)	4.4%	6%	5%	8
CSCCC(NS(=O)(=O)c1cccs1)C(=O)NCc1ccc(C)cc1 (stereo not drawn)	-2.1%	-6%	-1%	-5
CN(C(=O)CSc1nnc(Nc2ccccc2)s1)C1CCS(=O)(=O)C1 (stereo not drawn)	-1.7%	-1%	3%	1
COc1ccc(CC(=O)Nc2ccc(/C(C)=N/NC(=O)c3cccc([N+](=O)[O-])c3)cc2)cc1	-1.3%	2%	-10%	-2
COC(=O)c1ccccc1NC(=O)CNc1cc(OC)c(OC)cc1C	0.3%	1%	u	-4
CC1CCCN(Cc2nc3c(c(=O)n(C)c(=O)n3C)n2CCc2ccccc2)C1 (stereo not drawn)	1.0%	-9%	-3%	1
Cc1cccc(C(=O)Nc2nnc(S(=O)(=O)N3CCC(C)CC3)s2)c1	0.2%	-11%	-3%&-17%	x
COc1cccc(-n2nc(-c3ccnn3-c3cccc(Cl)c3)c(=O)n(C)c2=O)c1	4.8%	16%	-1%	3
COc1cc(CC(=O)OCC(=O)Nc2ncc(Cl)cc2Cl)cc(OC)c1OC	5.6%	-7%	-1%	-1
CC(=O)Nc1ccc(NC=C(C#N)C#N)cc1	-0.2%	4%	2%	-6
CC(=O)/C(=N\Nc1ccccc1Cl)Sc1nnc(-c2ccccc2)n1-c1ccccc1	0.9%	-5%	-2%	-2
COC(=O)c1sc(N2CCN(Cc3ccccc3)CC2)nc1N	-0.1%	-12%	-29%	x
Cc1cc(=O)[nH]c(Nc2cccc(Cl)c2C)n1	1.6%	-10%	0%	x
O=C(Cn1c(=O)c2c3c(sc2n(Cc2ccccc2)c1=O)CCCC3)NCCO	0.8%	19%	-2%	x

Of the compounds above, these contain a nitro group on carbon:
SMILES	Rango-impB inh	Rango dissoc inh	miR-21 reporter	GLA inh pH 4.5
O=C(Cc1ccccc1)NNS(=O)(=O)c1ccc([N+](=O)[O-])cc1	1.3%	1%	-3%	6
CC(OC(=O)Cc1n[nH]c(=O)c2ccccc12)C(=O)Nc1cccc([N+](=O)[O-])c1 (stereo not drawn)	4.4%	6%	5%	8
COc1ccc(CC(=O)Nc2ccc(/C(C)=N/NC(=O)c3cccc([N+](=O)[O-])c3)cc2)cc1	-1.3%	2%	-10%	-2

The list continues:
SMILES	Rango-impB inh	Rango dissoc inh	miR-21 reporter	GLA inh pH 4.5
O=C(NCc1ccco1)c1ccc(NC(=O)C2COc3ccccc3O2)cc1 (stereo not drawn)	-1.1%	-13%	-3%	-2
CCOc1cc(C(=O)N[C@@H](C)C(=O)N2CCC3(CC2)NCCc2[nH]cnc23)cc(OCC)c1OCC	-0.6%	-20%	-3%	x
CC(=O)c1cccc(NC(=O)C2C3C=CC(C4CC34)C2C(=O)O)c1 (stereo not drawn)	6.7%	-7%	-9%	2
CN(C)CCNC(=O)/C(=C/c1ccc(-c2cccc([N+](=O)[O-])c2)o1)NC(=O)c1ccccc1	-3.2%	0%	-1%	-3
CCCc1cc(NCCCN(C)C)n2c(nc3ccccc32)c1C#N	u	-28%	-1%	x
CCCCCCOc1ccc(/C=N/NC(=O)C2CC2)cc1	0.1%	-2%	-2%	x
Cc1ccccc1CNC(=O)C1CCCN(c2nnc(C)c3c(C)n(-c4ccccc4)nc23)C1 (stereo not drawn)	0.5%	-4%	1%	x
c1ccc(CCn2nnnc2CN2CCN(C3CCCC3)CC2)cc1	3.4%	-15%	-5%	7
COc1ccccc1N1CCN(C(=O)Oc2ccccc2)CC1	-2.3%	7%	-20%	3
Cc1noc(NS(=O)(=O)c2ccc(NC(=O)CSc3nc4c(cc3C#N)CCCCC4)cc2)c1C	6.6%	-15%	-8%	2
Cc1ccccc1-n1c(SCC(=O)Nc2ccccc2Cl)nc2n[nH]c(C)c2c1=N	-4.0%	-14%	-13%	x
C=CCNC(=O)/C(=C\c1ccc(OC)cc1)NC(=O)c1ccc([N+](=O)[O-])cc1	-0.7%	7%	-2%	-2
C[C@@H](NC(=O)c1nc[nH]c1C(=O)NCc1ccc(CNC(=O)OC(C)(C)C)cc1)c1ccccc1	-1.1%	5%	x	x
COc1ccc(C2/C=C\CN(S(=O)(=O)c3ccc(C)cc3)[C@H](Cc3ccccc3)C(=O)N2Cc2ccc(F)cc2)cc1 (stereo partly drawn)	-0.1%	-12%	8%	8
COc1ccc(-c2oc3ncn4nc(Cc5ccccc5)nc4c3c2-c2ccc(OC)cc2)cc1	-4.3%	14%	-2%	-2
CCOc1ccc(OCC)c(NC(=O)C2CCN(c3nn4c(=O)cc(C)nc4s3)CC2)c1	-0.5%	0%	-9%	3
CC(c1ccon1)N(C)Cc1c(C(=O)N(C)Cc2ccccc2)nc2ccccn12 (stereo not drawn)	-0.7%	-14%	0%	-11
Cc1sc(-c2c(C#N)c(N)nc3c2CCCCCC3)cc1[N+](=O)[O-]	u	6%	x	x
O=C(CN1CCCCC1)Nc1nc(-c2ccccc2)cs1	5.4%	-10%	-31%	x
CCOC(=O)Cc1csc(/C(=N/O)C(N)=O)n1	0.7%	-20%	-5%	-2
Cc1cc(C(=O)NN)c(Cl)cc1Cl	2.5%	-3%	-3%	2
CCOC(=O)c1ccccc1OCc1cc(/C=N/NC(=O)c2ccncc2)ccc1OC	-2.0%	15%	9%	-2
CCc1ccc(NC(=O)CC2C(=O)N(c3cccc(OC)c3)C(=O)N2CCOC)cc1 (stereo not drawn)	-0.6%	0%	-3%	x
C=CCn1c(C(CC)CC)nc2ccccc21	-5.1%	-1%	-3%	6
CCNC(=O)CCn1nc(-c2ccc(C)cc2)c2ccccc2c1=O	-3.1%	-11%	1%	x

Results in Rango-impB inh, for some of the entries so far:
mol,Rango-impB inh
CCOC(=O)c1ccccc1OCc1cc(/C=N/NC(=O)c2ccncc2)ccc1OC,-2.0%
CCc1ccc(NC(=O)CC2C(=O)N(c3cccc(OC)c3)C(=O)N2CCOC)cc1 (stereo not drawn),-0.6%
C=CCn1c(C(CC)CC)nc2ccccc21,-5.1%

Continuation.
SMILES	Rango-impB inh	Rango dissoc inh	miR-21 reporter	GLA inh pH 4.5
N#Cc1cc2ccccc2nc1SCc1ccccn1	3.2%	-21%	-55%	-8
Oc1cnc2ccccc2c1CN1CCOCC1	-0.5%	-10%	-3%	9
O=C(CNc1cccc2ccccc12)N/N=C/c1cccc(Oc2ccccc2)c1	4.1%	12%	-6%	-7
CCN(C(=O)c1cc(Cl)ccc1OC)c1ccccc1C	0.5%	-3%	2%	1
CCC(C)NC(=O)C1CCN(S(=O)(=O)c2ccc3nc4c(c(C(=O)O)c3c2)CCCCC4)CC1 (stereo not drawn)	-0.1%	-1%	-3%	x
O=C(CSc1nnc(NC(=O)c2ccco2)s1)NC1CCCC1	-1.0%	-4%	0%	1
Cc1cccnc1NC(=O)C1CCCN1S(=O)(=O)c1ccc(Cl)cc1 (stereo not drawn)	-1.5%	-4%	0%	x
COc1ccccc1CNC(=O)COC(=O)Cc1c(Cl)cccc1Cl	-3.7%	20%	3%	3
O=C(Cn1c2c(sc1=O)C1c3ccccc3OCC1CS2)Nc1ccc(Cl)c(Cl)c1 (stereo not drawn)	-1.9%	14%	5%	-1
COc1ccc(C)cc1S(=O)(=O)N1c2ccc(C)cc2C2CN(C)CCC21 (stereo not drawn)	-4.2%	-7%	x	x
CCc1ccccc1NC(=O)N1C2CCCC1CC(NC(=O)C(C)(C)C)C2 (stereo not drawn)	-0.8%	-12%	-1%	-1

These rows are one share of the data. The share of hits here may be higher or lower than overall.
